High-throughput results: PubChem BioAssay, several laboratories
rRNA inh HTS: inhibits bacterial ribosomal RNA function over humanized ribosomes; E. coli WT GFP vs humanized-ribosome RFP mutants, fluorescence, 24 h; active compounds read low; DMSO median 0, no signal -100; actives 1.6% (n = 350,000); AID 720706; GFP signal change (wild-type ribosome), % (no concentration beside the values);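 active = significant combined selectivity score with lowered wild-type GFP, culture density cut under 30%, mutant RFP and density less affected; inactive = any of these conditions unmet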; note: one replicate is shown; some compounds called inactive have numbers as strong as hits
HNF4A DNA FP: change in binding of human HNF4 alpha to DNA | P41235 | HNF4a-FITC DNA binding, fluorescence polarization, 1 h | activity change, % at 10 µM | actives 0.3% (n = 360,000); in the data active = activity change above about 30%, passing the limit was not always enough;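 note: controls were the assay level and a saturating level of protein; the project sought stronger binding though the title names inhibitors; some compounds called inactive have numbers as strong as hits; positive values seem to mean higher polarization but the record does not say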
Target sequence (P41235 whole entry, looked up): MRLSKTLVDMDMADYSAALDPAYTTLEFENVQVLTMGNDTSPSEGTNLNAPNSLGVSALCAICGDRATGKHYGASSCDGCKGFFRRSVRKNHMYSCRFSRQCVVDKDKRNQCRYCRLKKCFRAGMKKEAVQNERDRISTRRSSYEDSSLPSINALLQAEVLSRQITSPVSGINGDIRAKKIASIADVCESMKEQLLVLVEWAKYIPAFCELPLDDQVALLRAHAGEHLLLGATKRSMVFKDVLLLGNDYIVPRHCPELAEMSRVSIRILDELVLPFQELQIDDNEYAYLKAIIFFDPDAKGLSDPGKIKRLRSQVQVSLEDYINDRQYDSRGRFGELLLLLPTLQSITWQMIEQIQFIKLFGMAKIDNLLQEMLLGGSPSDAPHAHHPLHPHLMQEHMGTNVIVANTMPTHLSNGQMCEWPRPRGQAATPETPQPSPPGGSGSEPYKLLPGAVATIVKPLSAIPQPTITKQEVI
ALR H2O2 inh: human ALR oxidase inhibition via reduced H2O2. P55789. purified ALR, DTT oxidation, H2O2 HRP-luminol luminescence. inhibition, % (test concentration not listed). actives 3.8% (n = 290,000). AID 485317;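 active = mean and each replicate at 75% or more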;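 note: stock transfer was 7.5 nL into about 7.5 µL; 0% = neutral wells and 100% = wells with inactivated enzyme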
Target sequence (P55789 whole entry, looked up): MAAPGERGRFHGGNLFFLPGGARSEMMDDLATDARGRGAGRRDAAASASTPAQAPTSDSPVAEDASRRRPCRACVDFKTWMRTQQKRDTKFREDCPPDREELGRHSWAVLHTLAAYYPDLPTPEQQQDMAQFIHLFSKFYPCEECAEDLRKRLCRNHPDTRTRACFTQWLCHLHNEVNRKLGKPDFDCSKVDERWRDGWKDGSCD
MLL AF4-AF9 inh: inhibitors of human MLL-AF4/AF9 interaction; AlphaScreen, biotin-AF4 peptide binding to FLAG-AF9; P42568; AID 651704; inhibition, % at 10 µM; actives 0.47% (n = 350,000);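 active = every replicate reaching a set inhibition limit, whatever the replicate mean, cut at about 25% in these data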;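 note: 0% = plate neutral control median and 100% = total signal loss; the record names both 10 and 1 µM as test concentration; the first replicate is given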
Vif TR-FRET: HIV-1 Vif–A3G interaction blockers – biochemical, TR-FRET, GST-Vif 1-94, biotin-A3G peptide, dose response retest, primary screen (AID 1117319); TR-FRET GST-Vif / biotin-A3G peptide binding; higher % means a stronger effect; test concentration not given here; strong numbers were not always called active; inhibition, %, or IC50 in µM where a hit was titrated; actives 0.57% (n = 260,000);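 active = above the screen mean plus three standard deviations and confirmed in dose response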;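 note: Vif residues 1-94 fused to GST binding biotinylated APOBEC3G peptide 110-148; 0% = full assay without inhibitor and 100% = GST in place of GST-Vif; retest series ran down from 100 µM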
FGF22 binding: binders of recombinant human FGF22 by thermal shift; Q9HCT0; SYPRO orange fluorescence; percent of sucrose octasulfate shift, DMSO zero; calls only at 9.99 µM; actives 1.5% (n = 340,000); AID 651658;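 active = melting point raised past a set limit in the mean and every replicate; three in four hits are not shown here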
Target sequence (Q9HCT0 whole entry, looked up): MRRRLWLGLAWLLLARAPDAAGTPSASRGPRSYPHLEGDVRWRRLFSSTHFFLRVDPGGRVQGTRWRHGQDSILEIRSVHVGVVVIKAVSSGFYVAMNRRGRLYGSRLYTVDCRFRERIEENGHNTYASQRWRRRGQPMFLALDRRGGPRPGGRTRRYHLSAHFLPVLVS
Ecoli growth: inhibitors of Escherichia coli growth; OD600 absorbance (no concentration beside the values); OD600, 23 h; active compounds read low; actives 0.21% (n = 330,000);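 active = OD600 absorbance below the run mean of sample wells minus 3.6 SD, in any replicate, cut at about 0.56 in these data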;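 note: stock transfer was 300 nL into about 60 µL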
rRNA inh HTS OD600: recorded beside rRNA inh HTS, whose call it bears; OD600 change, %; measured here: OD600 growth;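 optical density of the mix in the first replicate; 0 = DMSO median and -100 = no signal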
rRNA inh HTS RFP: further read-out of rRNA inh HTS, marked with its call; RFP signal change, %; measured here: RFP humanized mutant strains;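 first replicate; 0 = DMSO median and -100 = no signal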
An asterisk follows results filed as active; i = inactive; . = not tested or not shown. The list is partial (hit frequency here may not be typical).

SMILES	rRNA inh HTS	rRNA inh HTS OD600	rRNA inh HTS RFP	HNF4A DNA FP	ALR H2O2 inh	MLL AF4-AF9 inh	Vif TR-FRET	FGF22 binding	Ecoli growth
O=C(c1cccc(C(=O)N(c2ccccn2)C2CCCCC2)c1)N(c1ccccn1)C1CCCCC1	-30.9	-38.4	-2.9	3.7	-23.5	0.6	-2.1%	i	0.67
COc1ccc(N(CC(=O)Nc2ccc3c(c2)OCCO3)S(=O)(=O)c2cccnc2)cc1	.	.	.	5.9	-11.6	.	6.2%	.	0.693
CC1CN(C(=O)CN2C(=O)c3ccccc3S2(=O)=O)CC(C)O1 (stereo not drawn)	.	.	.	-2.2	-1.9	.	-0.8%	.	0.739
COCCNC(=O)c1cc2c(c(-c3cccc(C#CC(C)(C)O)c3)n1)[C@@H](CCO)N(S(=O)C(C)(C)C)C2 (stereo partly drawn)	27.3	30.0	13.2	5.2	.	3.4	.	i	.
COc1ncnc2c1ncn2CCCNc1ccc(C)c(C)c1	-14.8	-12.4	-8.4	-0.9	.	4.3	.	i	.
C[C@H]1CN([C@@H](C)CO)S(=O)(=O)c2ccc(C#CCN(C)C)cc2O[C@H]1CN(C)Cc1ccccc1F	-4.6	9.2	1.5	.	.	12.0	.	i	.
Cc1ccc(C(=O)NCCC(=O)NCc2cc(=O)n(C)c(=O)n2C)cc1	7.2	11.4	1.7	-0.1	25.9	-0.4	0.5%	i	0.706
CN(Cc1ccccc1)C(=O)c1ccc(NC(=O)Cc2ccc(NC(=O)C3CCN(C(=O)CCc4ccccc4)CC3)cc2)cc1	-3.9	-4.1	4.0	-4.3	.	1.8	4.1%	i	0.725
Cc1cc(S(=O)(=O)N2CCCCC2CCNC(=O)C(=O)NCc2cccnc2)ccc1F (stereo not drawn)	-3.3	-3.6	0.0	1.6	-0.7	1.1	.	i	0.704
C[C@H]1CN([C@@H](C)CO)C(=O)c2cccc(NS(=O)(=O)c3ccc(Cl)cc3)c2O[C@@H]1CN(C)Cc1ccc(-c2ccccc2)cc1	-1.1	1.8	-5.1	.	.	2.0	.	i	.
O=C(NNC(=O)c1cnccn1)c1ccc(Cl)cc1	-39.1*	-27.4*	-9.8*	-1.7	-2.2	.	.	i	0.541
CCC(=O)N(C)C[C@@H]1Oc2cc(-c3ccccc3OC)ccc2S(=O)(=O)N([C@H](C)CO)C[C@@H]1C	1.8	6.9	-2.2	.	.	0.2	.	i	.
CC(C)NC(=O)N1[C@H](C(=O)NC2CCC2)[C@@H](CO)[C@@H]2Cn3c(ccc(-c4ccccc4F)c3=O)[C@@H]21	-1.4	3.6	-3.4	.	.	-2.5	.	i	.
O=C(CCN1C(=O)c2ccccc2C1=O)Nc1ccccc1C(F)(F)F	15.2	10.7	1.4	-2.4	-8.0	-2.4	-7.1%	i	0.661
O=C1N(Cc2cccnc2)C[C@@H]2C[C@@H](c3cccc(Oc4ccccc4)c3)N3CCC[C@@]123	2.5	1.3	2.5	0.6	0.2	1.3	7.2%	.	0.717
CCC(CC)c1nnc(NC(=O)c2cc(C(=O)OC)cc([N+](=O)[O-])c2)s1	.	.	.	1.5	0.6	.	-5.2%	.	0.697
COc1ccc(-c2c3c([nH]c(=S)c2C#N)CCC3)cc1	.	.	.	3.0	.	.	-9.2%	.	0.674
CC1(C)CC(=O)C(C=NCCN2CCN(C3CC(=O)N(c4ccc(F)cc4)C3=O)CC2)=C(O)C1 (stereo not drawn)	14.8	-0.9	-1.8	0.9	.	-11.7	11.7%	i	0.69
COCCN(Cc1cc2cc(C)ccc2n2nnnc12)C(=S)Nc1ccc(C)cc1	20.2	18.6	0.2	-0.5	-3.9	6.6	-12.7%	i	0.651
COC(=O)C1CCN(C(=O)c2sc3nc(-c4ccccc4)cn3c2C)CC1	.	.	.	-0.8	-9.7	.	30.6%	.	0.737
Cc1ccc(S(=O)(=O)CCC(=O)OCC(=O)NNC(=O)c2ccc([N+](=O)[O-])cc2)cc1	-0.8	0.3	-1.3	2.0	0.0	-0.9	.	i	0.65
Cc1noc(C)c1NC(=O)Nc1ccc2c(c1)C(=O)N([C@@H](C)CO)C[C@H](C)[C@H](CN(C)Cc1ccc(-c3ccccc3)cc1)O2	-3.7	-10.1	7.7	.	.	5.6	.	i	.
COc1ccccc1/C=C/C(=O)NCC(=O)N=Nc1c(O)[nH]c2ccccc12	3.8	1.8	1.8	0.3	-3.8	0.6	12.6%	i	0.715
Cc1ccccc1S(=O)(=O)NCC[C@H]1CC[C@H](NS(=O)(=O)c2ccccc2C)[C@H](CO)O1	-1.5	-3.6	0.8	.	.	-0.2	.	i	.
O=C(OCC(=O)C12CC3CC(CC(C3)C1)C2)c1ccccn1	.	.	.	-1.6	-9.4	-1.7	0.3%	i	0.631
Cc1ccc(N2C(=O)[C@@H]3[C@H](C2=O)[C@H]2C=CC=NN2[C@@H]3C(=O)Nc2ccccc2)cc1	-9.1	-4.7	1.9	5.5	0.7	-5.1	29.9%	i	0.677
Cc1nc(NC(=O)/C=C/c2ccc(C(C)(C)C)cc2)sc1C(=O)N(C)C	.	.	.	2.3	.	-2.3	-9.5%	i	0.748
CC(C)NC(=O)N(C)C[C@H]1Oc2ncc(C#CC3CCCC3)cc2C(=O)N([C@H](C)CO)C[C@@H]1C	5.9	0.6	0.9	.	.	-3.0	.	i	.
Cc1ccc(CCNC(=O)C2=CCN(S(=O)(=O)c3ccccc3)CC2)cc1	-3.6	-11.5	0.2	4.8	-2.5	-0.3	-7.4%	i	0.716
O=C(Nc1cccc(-c2nnc(-c3ccco3)o2)c1)C(c1ccccc1)c1ccccc1	.	.	.	2.0	0.7	.	-1.3%	.	0.679
C[C@@H]1CN([C@H](C)CO)C(=O)c2cc(NC(=O)Nc3ccccc3)ccc2O[C@@H](C)CCCCO[C@H]1CN(C)C(=O)Nc1ccc(C(F)(F)F)cc1	5.3	12.8	-2.4	.	.	-2.8	.	i	.
CCn1c(SCC(=O)Nc2ccc(Br)cn2)nnc1C1CC1	6.9	4.2	-0.2	0.7	0.6	-1.5	.	i	0.682
Cc1cc(C(=O)OCC(=O)N2CCc3ccccc32)ccc1[N+](=O)[O-]	5.8	15.6	-1.2	2.3	26.4	2.3	.	i	0.722
COc1ccc(CCNc2ccc(N3C(=O)CC(C)C3=O)cc2[N+](=O)[O-])cc1OC (stereo not drawn)	-10.7	-1.5	-1.2	3.4	-1.8	-14.9	-5.8%	i	0.707
Cc1nc(SCc2ccccc2)nc2c1CCC2	-37.8	-48.4	-7.6	1.3	-0.6	-0.2	-4.2%	i	0.7
O=C(C[C@@H]1C[C@@H]2c3cc(NC(=O)c4ccc5c(c4)OCO5)ccc3O[C@@H]2[C@H](CO)O1)NCC(F)(F)F	4.1	-6.2	-0.1	.	.	-4.6	.	i	.
C[C@H](NC(=O)C1CCN(S(=O)(=O)c2ccccc2)CC1)C(=O)NCc1ccco1	2.1	6.2	-1.7	2.9	0.9	-8.9	.	i	0.622
N#Cc1ccc(CSc2nnc(-c3cnccn3)o2)cc1	.	.	.	10.4	-5.0	.	-4.8%	.	0.721
Cc1sc2nc(CN3CCCC3)nc(N3CCN(S(=O)(=O)c4cccc(F)c4)CC3)c2c1C	-0.8	-4.1	7.6	13.7	-2.0	5.5	-6.6%	i	0.63
Cc1c(Br)c([N+](=O)[O-])nn1CCCC(=O)N1CCN(c2ccccc2)CC1	.	.	.	3.3	67.4	.	.	.	0.679
COc1ccccc1-c1ccc(SCC(=O)N2CCOCC2)nn1	-3.4	1.2	-4.8	0.7	-14.5	2.4	.	i	.
COC(=O)[C@@]12CCCN1[C@H](c1ccc(-c3ccc(OC)cc3)cc1)[C@@H]1C(=O)N(C)C(=O)[C@@H]12	-4.6	7.1	-13.9	1.6	-3.5	2.7	.	i	.
COc1ccc(-c2cnc3n2CCCCC3)cc1	10.1	16.5	3.1	-1.4	-12.7	-0.6	-1.6%	.	0.62
CCC(NC(=O)CCl)c1ccc(C)cc1 (stereo not drawn)	13.8	4.2	-2.9	-0.5	2.1	1.8	5.3%	i	0.67
COc1ccccc1NS(=O)(=O)c1cc(NC(=S)NCCN2CCOCC2)ccc1N1CCOCC1	-11.6	-12.8	9.4	-0.4	24.1	4.1	24.7%	i	0.633

One compound at a time, from the list above.
COc1ccc(CCNc2ccc(N3C(=O)CC(C)C3=O)cc2[N+](=O)[O-])cc1OC (stereo not drawn) in the list: rRNA inh HTS: -10.7; rRNA inh HTS OD600: -1.5; rRNA inh HTS RFP: -1.2; HNF4A DNA FP: 3.4; ALR H2O2 inh: -1.8; MLL AF4-AF9 inh: -14.9; Vif TR-FRET: -5.8%; FGF22 binding: i; Ecoli growth: 0.707
O=C(C[C@@H]1C[C@@H]2c3cc(NC(=O)c4ccc5c(c4)OCO5)ccc3O[C@@H]2[C@H](CO)O1)NCC(F)(F)F in the list: rRNA inh HTS: 4.1; rRNA inh HTS OD600: -6.2; rRNA inh HTS RFP: -0.1; HNF4A DNA FP: .; ALR H2O2 inh: .; MLL AF4-AF9 inh: -4.6; Vif TR-FRET: .; FGF22 binding: i; Ecoli growth: .

(continued)
SMILES	rRNA inh HTS	rRNA inh HTS OD600	rRNA inh HTS RFP	HNF4A DNA FP	ALR H2O2 inh	MLL AF4-AF9 inh	Vif TR-FRET	FGF22 binding	Ecoli growth
O=C(NCC[C@@H]1CC[C@H](NS(=O)(=O)c2cccc(F)c2)[C@@H](CO)O1)C1CCC1	-0.3	0.1	-2.0	.	.	-2.2	.	i	.
Cc1ccc(S(=O)(=O)N2CC[C@@H]3[C@H](CO)Nc4ccc(-c5cccc(C(=O)N(C)C)c5)cc4[C@@H]32)cc1	-0.9	-1.8	3.7	.	.	-2.7	.	i	.
COc1ccc(NC(=O)Nc2cccc3c2O[C@@H](CN(C)C(=O)Nc2c(C)noc2C)[C@@H](C)CN([C@@H](C)CO)C3=O)cc1	-2.2	-4.1	-1.4	.	.	-1.9	.	i	.
Cc1cn([C@H]2C[C@H](O)[C@@H](CNCc3ccc(CN(C)S(C)(=O)=O)o3)O2)c(=O)[nH]c1=O	11.4	11.9	4.8	3.7	.	0.7	4.9%	i	.
CCN(CCCc1ccccc1)CCCc1ccccc1	.	.	.	1.0	.	-4.1	0.3%	i	0.632
COC(=O)C1=C(C(=O)OC)[N+]2=C3N(C(=O)NC2(C)C)[C@H](CO)C[C@@]32c3ccccc3N(Cc3ccccc3)[C@@H]12	-3.3	5.0	-1.8	-0.7	-6.7	15.3	.	i	.
CCc1c(C#N)sc(C(N)=O)c1CC	-8.6	-16.4	0.6	-0.2	-1.9	0.1	-8.5%	i	0.663
CN(C(=O)COC(=O)COc1ccc(N(C)S(=O)(=O)c2ccc(Cl)cc2)cc1)c1ccccc1	1.1	-2.4	-0.2	12.7	.	1.1	.	i	0.67
CC1CS(=O)(=O)CCN1N=Cc1ccc([N+](=O)[O-])o1 (stereo not drawn)	.	.	.	4.0	-17.4	-7.9	.	i	0.581
COC(=O)c1ccc2c(=O)[nH]c(CSc3nc(-c4ccc(F)cc4)cs3)nc2c1	.	.	.	3.7	-3.4	.	-39.5%	.	.
C[C@H](CO)N1C[C@H](C)[C@@H](CN(C)C(=O)NC2CCCCC2)Oc2ccc(NC(=O)CCCCCC(=O)Nc3ccccc3N)cc2C1=O	0.1	-3.5	-4.0	.	.	-0.5	.	i	.
O=S(=O)(Nc1cccc2ncccc12)c1cccs1	.	.	.	-2.7	-9.2	.	19.5%	.	0.678
C[C@H](CO)N1C[C@H](C)[C@H](CN(C)C)Oc2c(NC(=O)c3cnccn3)cccc2C1=O	-0.4	5.4	-1.0	.	.	-2.3	.	i	.
C[C@H]1CN([C@@H](C)CO)C(=O)Cc2cc(NC(=O)Nc3ccc4c(c3)OCO4)ccc2O[C@@H]1CN(C)Cc1ccc(C(F)(F)F)cc1	3.4	-2.1	3.1	.	.	-1.9	.	i	.
